# Compound activity as filed in PubChem BioAssay.
# Measles inh: inhibitors of measles virus growth in infected cells; 33,000 compounds, 0.1% hits; z-score (test concentration not listed); infected Vero cells, GFP fluorescence, 64 h; active compounds read low;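 active means z-score under -3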;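 further: score is relative to mean and SD of the compound wells of a plate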
# * hit, by the source's call.
Measles inh,SMILES
0.18,CC(=O)Nc1ccc(NC(=O)CSc2ncccc2C(=O)O)cc1
-0.17,Cc1ccc(C2CC(c3ccccc3C)n3ncnc3N2)cc1 (configuration not stated)
0.73,COC(=O)CN(Cc1ccccc1)S(=O)(=O)c1ccc(C)cc1
-0.16,CCCNC(=O)C1CC(=O)N(c2ccccc2)C1 (configuration not stated)
0.48,O=[N+]([O-])c1ccc(O)c(C=Nc2cc(C(F)(F)F)ccc2Oc2cccc(F)c2)c1
-0.42,Cc1ccc2c(c1)C1OCCC1C1N2C(=O)C2C(C(=O)O)C3C=CC21O3 (configuration not stated)
0.57,O=C(Nc1ccccc1Cl)c1ccc(-n2cnnn2)cc1
-0.2,O=C(NCCN1CCOCC1)c1nn2c(C(F)(F)F)cc(-c3ccc(Br)cc3)nc2c1Br
-0.66,COc1ccc(C)cc1NC(=O)c1cc2ccccc2o1
-0.07,COc1ccc(C(=O)COC(=O)C2CCN(S(=O)(=O)c3cccc4cccnc34)CC2)cc1
-0.32,COc1ccc(NC(=O)CN(C)S(=O)(=O)c2ccc(Br)s2)cc1Cl
-0.25,O=C(Nc1ccc(F)cc1)c1cc2cc(Br)ccc2oc1=O
-0.65,CCOc1ccc(NC(=O)CN2CCN(Cc3ccccc3F)CC2)cc1
-0.02,Cc1cc(C)cc(-n2cnc3cc(C(=O)NC4CCCC(C)C4C)ccc32)c1 (configuration not stated)
-0.5,Cc1ccc(-c2cc(=O)[nH][nH]2)c(C)c1
1.58,CCOC(=O)C1=C(C)NC2=C(C(=O)C(C(=O)OC)C(C)C2)C1c1cc(OCC)c(O)c([N+](=O)[O-])c1 (configuration not stated)
-0.85,COc1ccc(C2CC(c3ccc(I)cc3)Nc3ncnn32)cc1OC (configuration not stated)
-0.27,Cc1ccc(S(=O)(=O)C2(C(=O)N3CCC(C)CC3)CC2)cc1
0.27,COc1ccc(CNCC2COc3ccccc3O2)cc1OC (configuration not stated)
-1.07,COc1ccc(Cl)cc1N1C(=S)NC(C)(C)C=C1C
0.57,CS(=O)(=O)N1CCCC(C(=O)NCc2cccs2)C1 (configuration not stated)
1.39,CCCCCn1c(=O)[nH]c2cc(C(=O)N3CCN(C)CC3)ccc2c1=O
-0.73,c1ccc(COCCOCCN2CCOCCOCCOCCOCCOCC2)cc1
-1.26,CCOc1ccc(NC(=O)c2ccc(N3C(=O)NC4CC3(C)Oc3ccccc34)cc2)cc1 (configuration not stated)
1.22,O=C(c1ccc(CNS(=O)(=O)c2ccc(Br)cc2)cc1)N1CCc2ccccc21
-0.08,COC(=O)C1=CN(CC2CCCO2)C=C(C(=O)OC)C1c1ccccc1Cl (configuration not stated)
-1.07,COc1ccccc1-n1cnc2cc(C(=O)NCc3ccco3)ccc21
0.03,CC1(C)CC(=O)C2=C(C1)N(Cc1ccccc1)C1=C(C(=O)CC(C)(C)C1)C2c1ccc(O)cc1
3.31,Cc1ccc(-c2cc(C(F)(F)F)n3ncc(C(=O)N4CCC(C)CC4)c3n2)cc1
-0.73,CCOc1ccc(CNC(=O)CCCl)cc1
0.01,Cc1ccc(NC(=O)c2ccccc2[N+](=O)[O-])c(C)c1
0.77,Cc1ccc(-c2nc3ccccc3o2)cc1NC(=O)c1cccs1
0.34,Cc1ccc(-c2[nH]c3ccccc3c2SCCNC(=O)C2CC2)cc1
-0.61,O=C(NCCc1ccccc1Cl)c1ccc2c(=O)n(-c3ccccc3)c(=O)[nH]c2c1
-0.51,Cc1ccc(C2NN(C(=O)c3cccc(Br)c3)C3C(=O)N(c4ccccc4Cl)C(=O)C23)cc1 (configuration not stated)
0.37,O=C(Cc1cccc2ccccc12)N1CCOCC1
1.1,CN(Cc1ccccc1)S(=O)(=O)c1ccc(F)c(C(=O)Nc2cccc(F)c2)c1
0.3,COc1cccc(C2=NN(C(=O)c3ccncc3)C(O)(C(F)(F)F)C2)c1 (configuration not stated)
0.15,CC(C)(C)NC(=O)C(=O)c1c(-c2ccccc2)cc2ccccn12
-0.23,Cc1c(NC(=O)c2ccccc2F)cccc1-c1nc2ccccc2s1
1.01,Cc1ccc2sc(=NC(=O)c3ccc(S(=O)(=O)N4CCCCC4)cc3)n(C)c2c1C
-1.21,CCN(CC)C1C(=O)Nc2ccc(Br)cc2C1c1ccccc1Cl (configuration not stated)
0.66,N#Cc1c(-n2ncnc2-c2ccc3c(c2)OCO3)sc2c1CCCC2
-0.45,COc1ccc(C)cc1-n1c(C)nc2cc(C(=O)NC3CCCC3)ccc21
-0.26,O=C(CCC1Nc2c3ccccc3nc(=S)n2C1=O)N1CCC(Cc2ccccc2)CC1 (configuration not stated)
0.9,O=C1CC(SC(=NCCO)Nc2ccccc2)C(=O)N1c1ccccc1F (configuration not stated)
0.09,COc1ccc(NC(=O)c2cc3cccc(OC)c3oc2=Nc2ccc(C(=O)O)cc2)cc1OC
0.25,CC(=O)c1c(Cl)nc2ccc(Cl)cc2c1-c1ccccc1
0.54,COc1ccc(-n2nc(C(=O)NCC(=O)N3CCN(c4ccccc4OC)CC3)c3ccccc3c2=O)cc1
-0.14,COc1ccc(CCn2c(=S)[nH]c3cc(C(=O)N4CCOCC4)ccc3c2=O)cc1OC
-0.14,CC1=C(C(=O)OCC(C)C)C(c2ccc(OCc3ccccc3)cc2)N2C(=O)CCSC2=N1 (configuration not stated)
-0.22,Cc1ccc(CNC(=O)c2ccc3c(c2)NC(=O)C(N2CCCC2)S3)cc1 (configuration not stated)
1.65,O=C1C(=O)N(c2nccs2)C(c2ccccc2Cl)/C1=C(\O)c1ccc(F)cc1 (configuration not stated)
-0.15,C#CC(O)(c1ccccc1)c1ccccc1
-2.53,CCOC(=O)c1c(NC(=O)CSc2nnc3cc(C)c4ccccc4n23)sc(C)c1C
0.95,CCOC(=O)c1ccc(N2C(=O)CC(N3CCN(C45CC6CC(CC(C6)C4)C5)CC3)C2=O)cc1 (configuration not stated)
0.84,COc1ccc(N2C3=C(C(=O)CC(C)(C)C3)C(c3cccc(F)c3)C3=C2CC(C)(C)CC3=O)c(OC)c1
-0.33,O=C(Nc1ccc(-c2nc3ccccc3[nH]2)cc1)c1ccco1
1.69,CN(CC(=O)N1CCc2ccccc21)S(=O)(=O)c1cccs1
-0.65,Nc1c(C(=O)Nc2nccs2)sc2nc3c(cc12)CCC3

# The list continues.
Measles inh,SMILES
0.79,COc1ccc(CCNC(=O)C(C(C)C)N2C(=O)c3ccccc3C2=O)cc1OC (configuration not stated)
0.8,COc1ccc(Cl)cc1C(=O)Nc1ncc(S(=O)(=O)c2ccc([N+](=O)[O-])cc2)s1
-1.06,Cc1c(C(=O)N(C)C)sc2c1c(=O)n(-c1ccc(Cl)cc1)c(=O)n2CC(=O)N1CCN(c2ccccc2)CC1
-0.01,COc1ccc(C2C=C(c3cccc(Br)c3)Nc3nnnn32)cc1OC (configuration not stated)
-0.82,CC(=O)N(CC(N)=O)C1(C(=O)Nc2ccc3c(c2)OCCO3)CCCC1
-0.85,CC1(C)CC(=O)c2sc(NC(=O)C(C)(C)Oc3ccc(Cl)cc3)nc2C1
-0.59,CCOC(=O)c1c(C)oc2ccc(NS(=O)(=O)c3ccc(F)c([N+](=O)[O-])c3)cc12
0.02,O=C(CSc1oc(-c2cccs2)nc1S(=O)(=O)c1ccc(F)cc1)c1ccc(Cl)cc1
-0.28,CCc1ccc(CNC(=O)c2cn(C3CCCC3)c(=O)c3c2c2ccccc2n3C)cc1
-0.42,COc1ccccc1CNC(=O)CCn1c(=O)c2ccccc2n(Cc2ccc(F)cc2)c1=O
0.02,CC(C)NS(=O)(=O)c1ccc2[nH]c(=O)c(=O)[nH]c2c1
0,COc1ccc2[nH]c3c(c2c1)CCCC3O (configuration not stated)
2.13,CC(=O)N1c2c(cc(Br)cc2S(=O)(=O)NCc2ccccc2)CC1C (configuration not stated)
-0.35,Cc1cccc(NC(=O)c2cc(S(=O)(=O)NCc3ccc(F)cc3)ccc2F)c1C
1.6,Cc1nn(C)c(C)c1S(=O)(=O)Nc1ccccc1
-0.07,CCOC(=O)c1ccc(N2C(=O)CC(N3CCN(Cc4ccccc4)CC3)C2=O)cc1 (configuration not stated)
2.41,COc1ccc(Cl)cc1C(=O)Nc1c2c(nn1-c1cccc(C)c1)CSC2
0.71,CCOC(=O)c1cc([N+](=O)[O-])sc1NC(=O)c1ccc(S(=O)(=O)N2CC(C)CC(C)C2)cc1 (configuration not stated)
0.18,CCOC(=O)CSc1nc2sc3c(c2c(=O)n1-c1ccc(C)cc1)CC(C)(C)OC3
0.49,O=C(NCc1ccccn1)C1CCN(S(=O)(=O)c2ccc(F)cc2)CC1
0.1,CCSc1nnc2c(n1)OC(CC)Nc1ccccc1-2 (configuration not stated)
-0.16,CCC(C)NC(=O)c1ccc2c(=O)n(Cc3ccc4c(c3)OCO4)c(=O)[nH]c2c1 (configuration not stated)
-0.09,CCOC(=O)c1c(-c2ccccc2)oc2ccc(OCc3ccc([N+](=O)[O-])cc3)cc12
0.35,COc1ccc(S(=O)(=O)Nc2cccnc2)cc1OC
0.26,Cc1sc(N=Cc2ccccc2Cl)c(C#N)c1C
-0.17,CCN(CC)C(=O)c1c(NC(=O)c2cccs2)sc2c1CCC(C(C)(C)C)C2 (configuration not stated)
-0.54,Cc1ccc(NC(=O)CCS(=O)(=O)c2cccc3nonc23)cc1
-1.03,COc1ccc(Cl)cc1NC(=O)c1cc(S(=O)(=O)N2CCCC2)ccc1F
0.3,CCOC(=O)C(C(=O)OCC)n1ccc(=O)[nH]c1=O
0.36,COC(=O)c1sc2ccccc2c1NC(=O)c1ccc(S(=O)(=O)N2CC(C)CC(C)C2)cc1 (configuration not stated)
-1.47,COc1ccccc1C(=O)Nc1cc(-c2nc3ccccc3s2)ccc1Cl
0.96,O=C(Nc1ccc(-c2nc3ccccc3o2)cc1)c1ccc(S(=O)(=O)N2CCCCC2)cc1
1.42,Cc1ccc2[nH]c(=O)c(C3=NN(C(=O)CCC(=O)O)C(c4ccccc4)C3)c(-c3ccccc3)c2c1 (configuration not stated)
0.43,O=c1[nH]c(Cc2ccccc2)nc2c1oc1ccccc12
-3.26*,CCN(CCNC(=O)C1CCCN(S(=O)(=O)c2cccc3nsnc23)C1)c1ccccc1 (configuration not stated)
-0.32,CCc1ccc(NC(=O)CCOc2ccccc2)cc1
1.9,CCC(C)NC(=O)c1cn(CC(C)C)c(=O)c2c1c1ccccc1n2C (configuration not stated)
2.04,CC(C)(C)C1CCc2c(sc(NC(=O)c3ccccc3Cl)c2C(=O)N2CCCC2)C1 (configuration not stated)
-0.49,CNc1nc(C)c(C(=O)OCc2ccccc2)s1
-0.37,NC(=O)C1(N2CCCCC2)CCN(C(=O)CCn2c(=O)[nH]c3ccsc3c2=O)CC1
0.67,CC(=O)Nc1ccc(OCc2c(C)noc2C)cc1
0.63,COc1ccc(NC(=O)Cn2c(Cc3ccccc3)nc3sc(C)c(C)c3c2=O)c(OC)c1
0.15,COc1cccc(C2CC(c3cccs3)=NN2C(C)=O)c1OC (configuration not stated)
-0.19,Cc1cccc(C2CC(c3ccc(Br)cc3)Nc3nnnn32)c1 (configuration not stated)
0.12,O=S(=O)(c1ccc(Br)cc1)c1nc(-c2ccco2)oc1SCc1ccc(F)cc1
-0.53,Cc1ccc(CNS(=O)(=O)c2cc(C(=O)Nc3ccc(Oc4ccccc4)cc3)ccc2F)cc1
-0.77,CCOc1ccc(NC(=O)Cn2cnc3sc(C)c(S(=O)(=O)N4CCCCC4)c3c2=O)cc1
-0.77,O=C(CSc1nc2[nH]ncc2c(=O)n1-c1ccc(Cl)cc1)Nc1ccccc1C(F)(F)F
-0.7,CCN(CC)S(=O)(=O)c1ccc(C(=O)N2CCN=C2SCc2ccc(Br)cc2)cc1
-0.67,CC1Cc2nc(SCC(=O)N3CCc4ccccc43)n(C)c(=O)c2S1 (configuration not stated)
-0.94,COc1ccc(S(=O)(=O)CCC(=O)N2c3ccc(F)cc3CCC2C)cc1 (configuration not stated)
-0.65,O=c1c2cn[nH]c2nc(SCc2cccc([N+](=O)[O-])c2)n1-c1ccc(Cl)cc1
-0.65,Cc1ccc(C)c(CN2C(=O)C(C(C)C(=O)NCc3ccc4c(c3)OCO4)Sc3ccccc32)c1 (configuration not stated)
-0.18,CC(=O)N1N=C(c2cccc([N+](=O)[O-])c2)OC1c1ccc2c(c1)OCO2 (configuration not stated)
-0.02,Cc1cccc(OCC(=O)Nc2ccc(S(=O)(=O)N3CCC(C)CC3)cc2)c1

# Entries listed so far that contain two or more sulfur atoms:
Measles inh,SMILES
-0.32,COc1ccc(NC(=O)CN(C)S(=O)(=O)c2ccc(Br)s2)cc1Cl
0.57,CS(=O)(=O)N1CCCC(C(=O)NCc2cccs2)C1 (configuration not stated)
1.01,Cc1ccc2sc(=NC(=O)c3ccc(S(=O)(=O)N4CCCCC4)cc3)n(C)c2c1C
-2.53,CCOC(=O)c1c(NC(=O)CSc2nnc3cc(C)c4ccccc4n23)sc(C)c1C
1.69,CN(CC(=O)N1CCc2ccccc21)S(=O)(=O)c1cccs1
-0.65,Nc1c(C(=O)Nc2nccs2)sc2nc3c(cc12)CCC3
0.8,COc1ccc(Cl)cc1C(=O)Nc1ncc(S(=O)(=O)c2ccc([N+](=O)[O-])cc2)s1
0.02,O=C(CSc1oc(-c2cccs2)nc1S(=O)(=O)c1ccc(F)cc1)c1ccc(Cl)cc1
0.71,CCOC(=O)c1cc([N+](=O)[O-])sc1NC(=O)c1ccc(S(=O)(=O)N2CC(C)CC(C)C2)cc1 (configuration not stated)
0.18,CCOC(=O)CSc1nc2sc3c(c2c(=O)n1-c1ccc(C)cc1)CC(C)(C)OC3
-0.17,CCN(CC)C(=O)c1c(NC(=O)c2cccs2)sc2c1CCC(C(C)(C)C)C2 (configuration not stated)
0.36,COC(=O)c1sc2ccccc2c1NC(=O)c1ccc(S(=O)(=O)N2CC(C)CC(C)C2)cc1 (configuration not stated)
-3.26*,CCN(CCNC(=O)C1CCCN(S(=O)(=O)c2cccc3nsnc23)C1)c1ccccc1 (configuration not stated)
0.12,O=S(=O)(c1ccc(Br)cc1)c1nc(-c2ccco2)oc1SCc1ccc(F)cc1
-0.77,CCOc1ccc(NC(=O)Cn2cnc3sc(C)c(S(=O)(=O)N4CCCCC4)c3c2=O)cc1
-0.7,CCN(CC)S(=O)(=O)c1ccc(C(=O)N2CCN=C2SCc2ccc(Br)cc2)cc1
-0.67,CC1Cc2nc(SCC(=O)N3CCc4ccccc43)n(C)c(=O)c2S1 (configuration not stated)

# These rows are one share of the data, so the mix of outcomes need not match the whole.
